Screens from PubChem BioAssay.
PINK1 modulator: changes PINK1 expression; PINK1 immunofluorescence, high-content cytometry, 24 h; Potency, µM (doses to about 76.6 µM), inactives show at the highest dose activation (PINK1 increase), actives largely listed as activators; actives 0.2% (n = 410,000); active = well fitted activation curve with a large enough effect; inconclusive = small, poorly fitted or top-dose-only effect; inactive = flat fitted curve, though single readings scatter; cell line not stated here;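 note: % of control where 0% means no effect; nearly all actives have a fitted effect of over 65% in size; a mitochondrial uncoupler was the plate control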
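Cells are seeded, rested 12 hours, then given compound at five concentrations or DMSO for 24 hours. After fixation, blocking and antibody staining, PINK1 amount and mitochondrial localization are scored; CCCP serves as control.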
Starred values were filed as active, the others as inactive; u = inconclusive. Potency is the fitted concentration of half-maximal effect. Not all compounds are listed; the hit share may differ from the screen's.

SMILES	PINK1 modulator
CC(=O)c1ccc(C(=O)NCC2Cc3cccc(-c4ncccn4)c3O2)cc1 (stereo unspecified)	0.3%
COc1ccccc1N1CCN(c2nc(CNC(=O)c3cc(C)oc3C)nc3ccccc23)CC1	2.5%
CSc1ncccc1C(=O)N1CCc2nnc(C(NC(=O)c3ccoc3)C(C)C)n2CC1 (stereo unspecified)	-0.7%
CCc1ccc(S(=O)(=O)NCc2nc(N3CCCC3)c3cccc(C)c3n2)cc1	0.0%
Cc1c(C(=O)N(C)C2CCOC2)cnn1-c1ncc2c(n1)-c1ccccc1CCC2 (stereo unspecified)	0.5%
COc1ccc(CN2CCCC(Cn3cc(C(=O)N4CCCC4)nn3)C2)c(O)c1 (stereo unspecified)	0.9%
COc1ccccc1C1CN(Cc2ccc(Sc3nncn3C)o2)Cc2ccccc2O1 (stereo unspecified)	0.5%
Cc1cc(CNC(=O)c2cnn(-c3ncc4c(n3)-c3ccccc3CC4)c2C2CC2)on1	1.7%
COC(=O)C1CCN(c2nc(CN(C)C3CCOC3)nc3cc(OC)c(OC)cc23)CC1 (stereo unspecified)	2.4%
COc1ccc2c(c1)OC(C)CN(CCNC(=O)c1ccc(-n3cccn3)cc1)C2 (stereo unspecified)	-0.8%
CC(=O)N1CCN(c2ccc(NCc3ccc(-c4cccc(Cl)c4)o3)cc2)CC1	7.8%
Oc1cccc2cc(Nc3ccccc3)cnc12	u
COCc1c(C(=O)N2CCC(N3CCCCC3)CC2)cnn1-c1ncc(C)c(-c2cccs2)n1	0.0%
COc1ccc(C(=O)NCC2Cc3cc(C)cc(-c4cc(C(C)=O)ccc4F)c3O2)c(OC)c1OC (stereo unspecified)	-0.1%
COc1cccc(C(=O)N2CCc3c(C(=O)NC(C)c4ccco4)c(OC)cc(=O)n3CC2)c1OC (stereo unspecified)	0.5%
COC(=O)C1CCCCN1Cc1ccc2c(c1)CN(Cc1cc(OC)c3c(c1)OCO3)CCO2 (stereo unspecified)	0.5%
CN(C)CC(C)(O)c1ccc2c(c1)CN(Cc1cnn(-c3ccccc3)c1)CCO2 (stereo unspecified)	0.5%
O=C(c1cncs1)N(Cc1cc2cc3c(cc2nc1N1CCOCC1)CCC3)CC1CCCO1 (stereo unspecified)	-0.5%
O=C(c1cccnc1)C1CCCN(Cc2ccc3c(c2)CN(C(=O)c2cn4ccccc4n2)CCO3)C1 (stereo unspecified)	-0.3%
Cc1nc2ccccc2nc1CN1CCOc2ccc(CN3CCc4sccc4C3)cc2C1	-0.6%

Next part; the last two above are carried over.
SMILES	PINK1 modulator
O=C(c1cccnc1)C1CCCN(Cc2ccc3c(c2)CN(C(=O)c2cn4ccccc4n2)CCO3)C1 (stereo unspecified)	-0.3%
Cc1nc2ccccc2nc1CN1CCOc2ccc(CN3CCc4sccc4C3)cc2C1	-0.6%
Cc1ccc(-c2ccc(C(=O)N3CCc4nnc(CNC(=O)c5ccccc5)n4CC3)cc2)cc1	0.7%
O=C(C1CC12CCN(Cc1cccc3cccnc13)CC2)N1CCN(Cc2cccs2)CC1 (stereo unspecified)	1.3%
Cc1ccc(CN2CCOc3ccc(CN4CCC(O)(c5cccnc5)CC4)cc3C2)cc1	0.5%
CCCCNC(=O)c1sc2ncnc(NCC3CCCO3)c2c1C (stereo unspecified)	-0.3%
Cc1c(C(=O)N2CCCC2)sc2ncnc(NCCCN3CCOCC3)c12	1.7%
COC(=O)C1CCN(Cc2ccc3c(c2)CN(C(=O)c2cc(C)oc2C)CCO3)CC1	-0.3%
Cc1cnc(C)c(-c2cccc3c2OC(CNC(=O)CN2C(=O)c4ccccc4C2=O)C3)n1 (stereo unspecified)	-0.9%
COc1cccc(CN2C(=O)NC(C)(C3CCN(Cc4cnn(C)c4C)CC3)C2=O)c1OC (stereo unspecified)	0.6%
CCC1CN(CCNC(=O)c2ccc(C#CC(C)(C)O)cc2)Cc2cc(OC)ccc2O1 (stereo unspecified)	0.3%
COC(=O)c1cc(CNC(=O)c2cnsn2)cc(NC(=O)c2ccccc2OC)c1	-1.0%
COc1ccccc1CN1C(=O)[C@H]2Cc3c([nH]c4ccccc34)C(C)(C)N2C1=O	1.5%
COc1ccc(CN2C(=O)[C@@H]3Cc4c([nH]c5ccccc45)C(C)(C)N3C2=O)cc1	10%
COCC(=O)Nc1cc(C(=O)N2CC3(C)CC2CC(C)(C)C3)c2c(c1)nc(-c1ccncc1)n2C (stereo unspecified)	0.0%
Cc1cnc(SCC2CCCO2)nc1C1CCCN(Cc2cc3c(cc2Cl)OCO3)C1 (stereo unspecified)	1.0%
Cn1nnnc1Sc1ncnc2scc(-c3ccc(-c4ccccc4)cc3)c12	-1.1%
COc1cc(-c2cc(C)c3c(OC)ccc(OC)c3n2)cc2c1OCCN(Cc1cn(C)nc1C)C2	-1.3%
COCc1ccc(CN2Cc3cc(Cl)ccc3OC(C)C2)o1 (stereo unspecified)	-0.7%
CC(=O)c1ccccc1-c1ccc2c(c1)CC(CNC(=O)c1cc(C)on1)O2 (stereo unspecified)	-0.4%
COCC(=O)Nc1cc(C(=O)N2CCc3sccc3C2)c2c(c1)nc(-c1ccncc1)n2C	0.9%
Cc1ccccc1-c1cccc(CN2CCc3nnc(C(C)NC(=O)c4cccnc4)n3CC2)c1 (stereo unspecified)	1.8%

An excerpt of these results, with each value named.
molecule: COC(=O)C1CCN(Cc2ccc3c(c2)CN(C(=O)c2cc(C)oc2C)CCO3)CC1
  PINK1 modulator = -0.3%

molecule: COCc1ccc(CN2Cc3cc(Cl)ccc3OC(C)C2)o1 (stereo unspecified)
  PINK1 modulator = -0.7%

Fetched by compound from the entries so far, seven records:
SMILES	PINK1 modulator
CCCCNC(=O)c1sc2ncnc(NCC3CCCO3)c2c1C (stereo unspecified)	-0.3%
Cn1nnnc1Sc1ncnc2scc(-c3ccc(-c4ccccc4)cc3)c12	-1.1%
Cc1ccc(CN2CCOc3ccc(CN4CCC(O)(c5cccnc5)CC4)cc3C2)cc1	0.5%
COc1cc(-c2cc(C)c3c(OC)ccc(OC)c3n2)cc2c1OCCN(Cc1cn(C)nc1C)C2	-1.3%
Cc1ccc(-c2ccc(C(=O)N3CCc4nnc(CNC(=O)c5ccccc5)n4CC3)cc2)cc1	0.7%
COC(=O)c1cc(CNC(=O)c2cnsn2)cc(NC(=O)c2ccccc2OC)c1	-1.0%
COc1cccc(CN2C(=O)NC(C)(C3CCN(Cc4cnn(C)c4C)CC3)C2=O)c1OC (stereo unspecified)	0.6%

More results follow:
SMILES	PINK1 modulator
COc1ccc(-c2nc3cc(C)ccc3cc2CN(C(=O)c2csc(C)n2)C2CC2)cc1OC	-1.1%
CN(Cc1ccon1)C(=O)c1cnn(-c2ncc3c(n2)-c2ccccc2CCC3)c1C1CC1	1.4%
COc1ccc2c(c1)-c1nc(-n3ncc(C(=O)N(C)C(C)c4ccon4)c3C3CC3)ncc1CC2 (stereo unspecified)	1.8%
OC1(c2cccnc2)CCN(Cc2ccc3c(c2)CN(Cc2ccsc2)CCO3)CC1	-0.2%
Cc1ncc2c(c1CNC(=O)c1ccc3c(c1)OCO3)CCN(C(=O)c1csc3c1CCCC3)C2	-0.4%
COC(=O)C1CCCCN1Cc1nc(N(C)C)c2ccccc2n1 (stereo unspecified)	-0.6%
Cc1noc(C)c1-c1ccc2nc[nH]c(=O)c2c1	-0.6%
COCC(=O)Nc1cc(C(=O)NC2CCc3ccccc32)c2c(c1)nc(-c1ccncc1)n2C (stereo unspecified)	0.2%
O=C(NNC(=O)c1nc2ccccc2[nH]1)OCc1ccccc1	1.1%
Cc1cnc(C)c(-c2cccc3c2OC(CNC(=O)C[C@@H]2C[C@@H](C)NC(=S)N2)C3)n1 (stereo partly specified)	0.2%
COc1ccccc1CN1CCC(n2cc(C(=O)N3CCCCC3)nn2)CC1	0.2%
Cc1cnc(SCCN2CCOCC2)nc1C1CCCN(C(=O)c2cccc3c(C)c(C)[nH]c23)C1 (stereo unspecified)	1.5%
CO[C@H]1[C@H](NC(=O)c2ccsc2)c2ccccc2C12CCN(Cc1c(O)ccc3ccccc13)CC2	0.5%
COc1ccc(-n2c(CNC(=O)c3ccc(OC)cc3OC)nnc2SC)cc1	-1.1%
O=C(c1ccc2c(c1)OCO2)N(Cc1cc2cc3c(cc2nc1N1CCOCC1)CCC3)CC1CCCO1 (stereo unspecified)	-0.5%
CC(CCc1ccc(O)cc1)N1CCOc2c(O)cc(-c3nc4ccccc4s3)cc2C1 (stereo unspecified)	1.7%
COc1cccc(C(=O)N(Cc2cc3ccc(C)cc3nc2N(C)C)C2CC2)c1OC	1.7%
O=C(CN1Cc2ccccc2OC(c2ccsc2)C1)NCC1OCCc2ccccc21 (stereo unspecified)	-1.3%
Cc1cc2c(s1)c1cnn(-c3ccccc3)c(=O)c1n2C	-0.4%
Cc1cccc(CNCCn2cc(C(=O)Nc3ccccc3)nn2)c1	-1.2%
COc1ccccc1C1CN(Cc2cnn(C)c2)Cc2ccccc2O1 (stereo unspecified)	0.2%
COc1cccc(CN2CCC3(CCC(CNC(=O)c4ccccc4)O3)CC2)c1 (stereo unspecified)	0.5%
NC(=O)C1CCN(c2nc(-c3cc4ccccc4o3)cs2)CC1	1.7%
COc1cc(=O)n2c(c1C(=O)NCc1nonc1C)CCN(Cc1c[nH]c3ccccc13)CC2	0.6%
C[C@@H]1CN(S(=O)(=O)c2c(F)cccc2F)CCN1S(=O)(=O)c1ccc2c(c1)OCCO2	-0.4%
CC(Oc1ccccc1)C(=O)NCC1Cc2cc(F)cc(-c3ccccn3)c2O1 (stereo unspecified)	-0.2%
COc1ccccc1C(=O)N[C@@H]1c2ccccc2C2(CCN(Cc3ccc(C)o3)CC2)[C@H]1O	1.2%
COc1cc(F)c(C(=O)NC(C)(C)CO)cc1OC	0.5%
CN1CCCCCC1C(=O)NCC1Cc2cc(-c3cnccn3)ccc2O1 (stereo unspecified)	0.0%
Cc1ccc(C(=O)Nc2cccc(-c3nc(CNC(=O)c4ccc5ccccc5n4)c(C)o3)c2)s1	0.0%
O=C(NCC1CCC2(CCN(Cc3cccc(-c4ccco4)c3)CC2)O1)c1ccccc1 (stereo unspecified)	-0.1%
COc1ccc(F)c(CN2CCOc3ccc(CN4CCC(O)(c5cccnc5)CC4)cc3C2)c1	0.1%
COc1ccccc1C(=O)N1CCCC(c2nc(SCCN3CCOCC3)ncc2C)C1 (stereo unspecified)	-0.4%
c1cncc(OC2CCN(Cc3ccc4c(c3)CN(Cc3ccc5c(c3)OCO5)CCO4)CC2)c1	0.0%
COC(=O)C1CCN(Cc2ccc3c(c2)CN(C(=O)c2cc(-c4ccc(C)o4)[nH]n2)CCO3)CC1	1.2%
O=C(NCc1nnc2n1CCN(C(=O)/C=C/c1ccccc1)CC2)c1cccc(F)c1	0.1%
COc1ccccc1C(=O)N[C@@H]1c2ccccc2C2(CCN(C(=O)c3ccnn3C)CC2)[C@H]1OC	0.4%
CCC1(C2CCN(C(=O)c3cc(F)ccc3F)CC2)NC(=O)N(CCc2scnc2C)C1=O (stereo unspecified)	-0.3%
O=C(OCC#CCSc1nnc(-c2cccc3ccccc23)o1)c1cc2ccccc2o1	-0.2%
COc1cc(=O)n2c(c1C(=O)N(C)Cc1ccsc1)CCN(Cc1c(C)nc3sccn13)CC2	0.2%
O=C(NCc1nnc2n1CCN(Cc1ccc(C(F)(F)F)cc1)CC2)c1ccccn1	0.3%
CCC1CN(CCNC(=O)c2cc3ccccc3oc2=O)Cc2cc(OC)ccc2O1 (stereo unspecified)	0.4%
CCC1CN(CCNC(=O)c2scc3c2OCCO3)Cc2cc(OC)ccc2O1 (stereo unspecified)	0.5%
O=C(c1ccc2c(c1)OCO2)N1CCOc2ccc(CN3CCC(Oc4cccnc4)CC3)cc2C1	-0.6%
COC(=O)c1ccc(CN2CCOc3ccc(C(O)c4cccnc4)cc3C2)cc1 (stereo unspecified)	-1.0%
CC(=O)c1ccc(N2CCN(S(=O)(=O)c3ccc4c(c3)C(Cl)(Cl)C(=O)N4)CC2)cc1	3.4%
Cc1cc(C(=O)Nc2ccccc2-c2nc(CNC(=O)c3ccc(F)cc3F)c(C)o2)c(C)o1	1.1%
Cc1cnc(-n2ncc(C(=O)NCC(C)(C)N3CCOCC3)c2C(C)C)nc1-c1ccc(F)cc1	-0.1%
NC(=O)C1CCN(c2nc(-c3ccccc3N)cs2)CC1	2.1%
OC1(c2cccnc2)CCN(Cc2ccc3c(c2)CN(Cc2ccc(F)c(F)c2)CCO3)CC1	-1.3%
COc1cc(OC)c(OC)cc1CN1CCC(n2cc(C(=O)N3CCCCC3)nn2)CC1	0.6%
COc1cccc(C(=O)NCC2Cc3c(F)ccc(-c4ncccn4)c3O2)c1OC (stereo unspecified)	0.3%
O=C(NCCN1Cc2ccccc2OC(c2ccccc2F)C1)c1cncs1 (stereo unspecified)	0.4%
COc1cccc(CN2CCOc3ccc(C(O)c4cccnc4)cc3C2)c1 (stereo unspecified)	-0.7%
O=C([C@@H]1C[C@@H](Sc2nc3ccccc3[nH]2)CN1Cc1c(F)cccc1F)N1CCOCC1	0.5%
COc1cc(OC)c(OC)cc1CN1CCCC(n2cc(C(=O)N3CCCCC3)nn2)C1 (stereo unspecified)	0.7%
Cc1cc2c(c(-c3ccc(Cl)cc3)c1)OC(CNC(=O)Cc1c(C)noc1C)C2 (stereo unspecified)	3.9%
COc1cc(-c2ccc(C)cc2)cc2c1OCCN(C(=O)CCn1ccc(C)n1)C2	0.8%
Cn1c(=O)c(N=O)c(N)n(Cc2ccccc2)c1=S	0.4%
CC(=O)c1ccc(-c2cc(F)cc3c2OC(CNC(=O)c2ccc[n+]([O-])c2)C3)s1 (stereo unspecified)	0.0%
COc1cccc(C(=O)NCC2Cc3cccc(-c4nc(C)cnc4C)c3O2)c1OC (stereo unspecified)	0.5%
Oc1cc(-c2cccs2)cc2c1OCCN(Cc1cn[nH]c1-c1ccc(Cl)cc1)C2	0.1%
